# p53 mut binder: binders of human mutant p53 | small molecule microarray binding, anti-GST fluorescence | calls only | hit rate 0.4% among 17,000 | AID 624136;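 active = compounds whose four printed spots each glow above background more than chance allows, each with a p-value under 7%; compounds were printed on slides so no solution concentration is given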;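 note: about 2 pmol printed per array spot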
# ID4 binder: binds human ID4 protein on microarray. hit rate 1.2% among 31,000. small molecule microarray, Flag-ID4 binding, fluorescence F/B. AID 624137. calls only. P47928;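 active = spot signal over background at p below 0.07 in all four prints; compounds were printed on slides so no solution concentration is given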;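 note: a binder raises fluorescence above local background on the spot; about 2 pmol printed per array spot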
# Target sequence (P47928 whole entry, looked up): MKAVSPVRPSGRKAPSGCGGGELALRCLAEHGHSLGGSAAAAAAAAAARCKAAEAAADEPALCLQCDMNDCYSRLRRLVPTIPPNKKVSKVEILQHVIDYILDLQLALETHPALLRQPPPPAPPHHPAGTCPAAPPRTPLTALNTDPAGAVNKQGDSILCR
# c-Myc SMM: binds human c-Myc on microarray; hit rate 1.5% among 17,000; P01106; calls only; small molecule microarray, His-c-Myc binding, anti-His fluorescence;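 active = spot fluorescence over background with P-value below 7% in all four replicate spots, showing protein binding; compounds were printed on slides so no solution concentration is given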;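 note: score is binary with 100 for all four spots passing and 0 otherwise; about 2 pmol printed per array spot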
# Target sequence (P01106 whole entry, looked up): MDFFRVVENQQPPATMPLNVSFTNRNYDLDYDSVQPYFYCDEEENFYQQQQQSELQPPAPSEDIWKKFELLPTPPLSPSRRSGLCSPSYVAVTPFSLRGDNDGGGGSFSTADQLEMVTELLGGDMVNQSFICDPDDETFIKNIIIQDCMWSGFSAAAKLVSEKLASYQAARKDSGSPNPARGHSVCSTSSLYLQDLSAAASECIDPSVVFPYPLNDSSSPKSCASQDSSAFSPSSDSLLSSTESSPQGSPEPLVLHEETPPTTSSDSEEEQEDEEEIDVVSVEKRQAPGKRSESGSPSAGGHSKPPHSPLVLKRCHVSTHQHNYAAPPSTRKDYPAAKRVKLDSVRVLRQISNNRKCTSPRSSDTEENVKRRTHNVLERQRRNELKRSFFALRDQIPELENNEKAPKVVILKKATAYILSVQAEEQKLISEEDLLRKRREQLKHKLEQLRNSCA
# STAT3 SMM: binds human STAT3 on microarray; AID 624138; calls only; hit rate 0.2% among 17,000; P40763; Small molecule microarray, His-STAT3 binding, anti-His fluorescence;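 active = compounds whose four printed spots each show fluorescence over background unusually high for their array block, chance value under 7%; compounds were printed on slides so no solution concentration is given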;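 note: about 2 pmol printed per array spot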
# Calls only; i = inactive; . = not tested or not shown; + = active, no number.
SMILES,p53 mut binder,ID4 binder,c-Myc SMM,STAT3 SMM
C[C@H](CO)N1C[C@H](C)[C@@H](CN(C)S(=O)(=O)c2cn(C)cn2)Oc2ccc(NC(=O)Cc3ccccc3)cc2CC1=O,i,i,i,i
Cc1noc(C)c1NC(=O)N(C)C[C@H]1Oc2c(NS(=O)(=O)c3cn(C)cn3)cccc2C(=O)N([C@@H](C)CO)C[C@@H]1C,i,i,i,i
O=C(NCCn1cc(Cl)cn1)Nc1cccc(Cl)c1Cl,i,i,i,i
COc1ccc(S(=O)(=O)Nc2cccc3c2O[C@H](CN(C)C)[C@H](C)CN([C@H](C)CO)C3=O)cc1,i,i,i,i
C[C@@H]1CN([C@@H](C)CO)C(=O)Cc2cc(NS(=O)(=O)c3ccc(Cl)cc3)ccc2O[C@@H]1CN(C)C,i,.,i,i
Cc1cc(C(C)(C)C)c(O)c(C(C)(C)C)c1,i,i,i,i
CC(C)NC(=O)N(C)C[C@@H]1Oc2ccc(NC(=O)CCCN(C)C)cc2C(=O)N([C@@H](C)CO)C[C@H]1C,i,i,i,i
CC(=O)c1c(C)oc2ccc(N(C(C)=O)S(=O)(=O)c3cccc4cccnc34)cc12,i,i,i,i
COc1ccc(CN(C)C[C@H]2OCCCC[C@H](C)Oc3ccc(NC(=O)Nc4ccc5c(c4)OCO5)cc3C(=O)N([C@@H](C)CO)C[C@H]2C)cc1,i,.,i,i
C[C@@H]1CN([C@@H](C)CO)C(=O)c2cccc(NS(=O)(=O)c3cccs3)c2O[C@H]1CN(C)Cc1ccc(-c2ccccc2)cc1,i,i,i,i
C[C@H]1CN([C@@H](C)CO)C(=O)c2cc(N(C)C)ccc2O[C@H]1CN(C)C,i,i,i,i
C[C@H](CO)N1C[C@H](C)[C@@H](CN(C)C)Oc2c(NC(=O)c3ccncc3)cccc2C1=O,i,i,i,i
CCCC1(O)Cc2c(C(C)=O)cc3cccc(O)c3c2O1 (stereo not drawn),i,.,i,i
COc1c(C)cc(Br)cc1C(=O)NC(=S)Nc1sc2c(c1C(N)=O)CCCCC2,i,i,i,i
C[C@@H]1CCCCO[C@@H](CN(C)C(=O)Nc2ccc(C(F)(F)F)cc2)[C@@H](C)CN([C@H](C)CO)C(=O)c2cc(NS(C)(=O)=O)ccc2O1,i,i,i,i
CC(O)c1cncc2c(=O)n3c(cc12)-c1[nH]c2ccccc2c1CC3 (stereo not drawn),i,.,i,i
CNC[C@H]1Oc2ccc(NC(=O)Cn3cnnn3)cc2C(=O)N([C@@H](C)CO)C[C@@H]1C,i,.,i,i
Cc1noc(C)c1NC(=O)Nc1ccc2c(c1)C(=O)N([C@H](C)CO)C[C@H](C)[C@@H](CN(C)Cc1ccccc1)O2,i,i,i,i
C[C@@H]1CN([C@H](C)CO)C(=O)c2cccc(NS(=O)(=O)c3cn(C)cn3)c2O[C@@H]1CN(C)Cc1ccc(Cl)c(Cl)c1,i,i,i,i
O=C(/C=C/c1ccc(O)cc1)O[C@@H]1CC(O)(C(=O)O)C[C@@H](OC(=O)/C=C/c2ccc(O)cc2)C1O (stereo partly drawn),i,i,i,i
C[C@H](CO)N1C[C@H](C)[C@@H](CN(C)C)OCCCC[C@H](C)Oc2ccc(NC(=O)Cc3ccccc3)cc2C1=O,i,i,i,i
Cc1ccc(S(=O)(=O)Nc2cccc3c2O[C@@H](CN(C)Cc2ccccc2)[C@H](C)CN([C@@H](C)CO)C3=O)cc1,i,.,i,i
COc1ccc(S(=O)(=O)N(C)C[C@H]2Oc3c(NS(=O)(=O)c4ccccc4)cccc3C(=O)N([C@H](C)CO)C[C@@H]2C)cc1,i,i,i,i
CC(C)NC(=O)Nc1cccc2c1O[C@@H](CN(C)Cc1ccc(Oc3ccccc3)cc1)[C@@H](C)CN([C@@H](C)CO)C2=O,i,i,i,i
C[C@H](CO)N1C[C@H](C)[C@H](CN(C)Cc2ccccc2)OCCCC[C@H](C)Oc2ccc(NS(=O)(=O)c3ccccc3)cc2C1=O,+,i,i,i
Cc1ccnc(SCC(=O)Nc2ccccc2C)n1,i,i,i,i
C[C@H]1CCCCO[C@H](CN(C)C(=O)Nc2ccc(C(F)(F)F)cc2)[C@@H](C)CN([C@@H](C)CO)C(=O)c2cc(NC(=O)Cc3ccccc3)ccc2O1,i,.,i,i
O=c1cc(Oc2ccc(O)cc2)oc2cc(O[C@@H]3O[C@H](CO[C@@H]4O[C@H](CO)[C@@H](O)[C@H](O)[C@H]4O)[C@@H](O)[C@H](O)[C@H]3O)cc(O)c12,i,.,i,i
COCCCNCCn1cnc2c(N)ncnc21,i,i,i,i
O=S(=O)(NC1CCCCC1Sc1nnc(Nc2ccccc2)s1)c1ccccc1 (stereo not drawn),i,i,i,i
CC(C)NC(=O)N(C)C[C@@H]1Oc2ccc(NC(=O)CCC(F)(F)F)cc2C(=O)N([C@@H](C)CO)C[C@@H]1C,i,i,i,i
C[C@H]1CN([C@@H](C)CO)C(=O)CCCn2cc(nn2)CO[C@@H]1CN(C)Cc1ccc(Cl)c(Cl)c1,i,i,i,i
CCO[C@@H]1OC(C(=O)N2CCCC2)=C[C@H](C2CCCCC2)[C@H]1CCCO,i,i,i,i
C[C@@H]1CN([C@@H](C)CO)C(=O)CCCn2cc(nn2)CO[C@@H]1CN(C)C(=O)Nc1cccc(Oc2ccccn2)c1,i,i,i,i
CC(=O)c1ccc(NC(=O)C(C)N2C(=O)C3C4C=CC(C5CC45)C3C2=O)cc1 (stereo not drawn),i,i,i,i
COc1ccc(CN(C)C[C@@H]2Oc3c(NS(=O)(=O)c4ccc(OC)cc4)cccc3C(=O)N([C@@H](C)CO)C[C@@H]2C)cc1,i,i,i,i
O=C1NC(c2cccc([N+](=O)[O-])c2)=CCN1c1ccccc1O,i,.,i,i
Cn1ccc2cc(NC(=O)Nc3cccnc3)ccc21,i,+,i,i
C[C@H](CO)N1C[C@H](C)[C@H](CN(C)C(=O)Nc2ccccc2)Oc2ccc(NC(=O)Nc3ccccc3)cc2CC1=O,i,i,i,i
C[C@@H]1CN([C@H](C)CO)C(=O)c2cccc(NC(=O)c3nc4ccccc4s3)c2O[C@H]1CN(C)Cc1ccncc1,i,i,i,i
C#CCNC(=O)C1=C[C@H](c2ccc(C(F)(F)F)cc2)[C@@H](CCCO)[C@H](OCC)O1,i,.,i,i
CC1=C(C(=O)Nc2ccccc2)C(c2ccccn2)n2ncnc2N1 (stereo not drawn),i,i,i,i
C[C@H](CO)N1C[C@H](C)[C@@H](CN(C)C(=O)C2CCCCC2)OCCCC[C@H](C)Oc2ccc(NS(=O)(=O)c3cccs3)cc2C1=O,i,i,i,i
CC(C)NC(=O)Nc1ccc2c(c1)C(=O)N([C@H](C)CO)C[C@@H](C)[C@H](CN(C)S(=O)(=O)c1cccs1)OCCCC[C@@H](C)O2,i,i,i,i
COc1ccc(CN(C)C[C@@H]2Oc3c(NC(=O)c4nc5ccccc5s4)cccc3C(=O)N([C@H](C)CO)C[C@H]2C)cc1,i,i,i,i
O=C(NC1CC1)C1=C[C@@H](C2CC2)C[C@@H](OCc2ccc(CO)cc2)O1,i,i,i,i
C[C@H](CO)N1C[C@H](C)[C@H](CN(C)C(=O)Nc2ccccc2)Oc2c(NC(=O)c3cnccn3)cccc2C1=O,i,i,i,i
CNC[C@H]1OCCCC[C@@H](C)Oc2ccc(NC(=O)Nc3cccc4ccccc34)cc2C(=O)N([C@@H](C)CO)C[C@@H]1C,i,i,i,i
Cc1noc(C)c1NC(=O)N(C)C[C@@H]1Oc2ccc(NC(=O)Nc3ccc4c(c3)OCO4)cc2C(=O)N([C@H](C)CO)C[C@@H]1C,i,i,i,i
O=C(Nc1cccc(NC(=O)c2ncn[nH]2)c1)c1cccc(Cl)c1,i,i,i,i

# In the list so far, these have a thiophene ring, fused or not.
SMILES,p53 mut binder,ID4 binder,c-Myc SMM,STAT3 SMM
C[C@@H]1CN([C@@H](C)CO)C(=O)c2cccc(NS(=O)(=O)c3cccs3)c2O[C@H]1CN(C)Cc1ccc(-c2ccccc2)cc1,i,i,i,i
COc1c(C)cc(Br)cc1C(=O)NC(=S)Nc1sc2c(c1C(N)=O)CCCCC2,i,i,i,i
C[C@H](CO)N1C[C@H](C)[C@@H](CN(C)C(=O)C2CCCCC2)OCCCC[C@H](C)Oc2ccc(NS(=O)(=O)c3cccs3)cc2C1=O,i,i,i,i
CC(C)NC(=O)Nc1ccc2c(c1)C(=O)N([C@H](C)CO)C[C@@H](C)[C@H](CN(C)S(=O)(=O)c1cccs1)OCCCC[C@@H](C)O2,i,i,i,i

# A draw from above in order of molecular weight, rising.
SMILES,p53 mut binder,ID4 binder,c-Myc SMM,STAT3 SMM
O=C(NC1CC1)C1=C[C@@H](C2CC2)C[C@@H](OCc2ccc(CO)cc2)O1,i,i,i,i
C#CCNC(=O)C1=C[C@H](c2ccc(C(F)(F)F)cc2)[C@@H](CCCO)[C@H](OCC)O1,i,.,i,i
C[C@H](CO)N1C[C@H](C)[C@H](CN(C)C(=O)Nc2ccccc2)Oc2c(NC(=O)c3cnccn3)cccc2C1=O,i,i,i,i
Cc1noc(C)c1NC(=O)N(C)C[C@@H]1Oc2ccc(NC(=O)Nc3ccc4c(c3)OCO4)cc2C(=O)N([C@H](C)CO)C[C@@H]1C,i,i,i,i

# Carrying on:
SMILES,p53 mut binder,ID4 binder,c-Myc SMM,STAT3 SMM
CC(C)NC(=O)N(C)C[C@H]1OCCCC[C@H](C)Oc2ccc(NS(=O)(=O)c3cccs3)cc2C(=O)N([C@@H](C)CO)C[C@H]1C,i,i,i,i
C[C@@H]1CCCCO[C@@H](CN(C)C(=O)CCCN(C)C)[C@H](C)CN([C@@H](C)CO)C(=O)c2cc(NS(=O)(=O)c3cccs3)ccc2O1,i,i,i,i
C[C@@H]1CN([C@H](C)CO)C(=O)c2cc(NC(=O)Nc3ccc4c(c3)OCO4)ccc2O[C@@H](C)CCCCO[C@@H]1CN(C)Cc1ccccc1,i,i,i,i
COc1ccccc1CN(C)C[C@@H]1OCc2cn(nn2)CCCC(=O)N([C@H](C)CO)C[C@@H]1C,i,i,i,i
C[C@@H]1CN([C@@H](C)CO)C(=O)CCCn2cc(nn2)CO[C@@H]1CN(C)C,i,i,i,i
Cc1noc(C)c1S(=O)(=O)N(C)C[C@H]1Oc2ccc(NC(=O)CCCN(C)C)cc2CC(=O)N([C@H](C)CO)C[C@@H]1C,i,i,i,i
C#CCNC(=O)C1=C[C@H](C)[C@@H](CCCO)[C@H](OCC)O1,i,i,i,i
CS(=O)(=O)N(CC(=O)Nc1ccc(F)cc1F)c1ccc(Cl)cc1,i,i,i,i
C[C@@H]1CCCCO[C@@H](CN(C)C(=O)Nc2cccc3ccccc23)[C@@H](C)CN([C@H](C)CO)C(=O)c2cc(N(C)C)ccc2O1,i,i,i,i
CC(=O)C(Sc1nc(N(C)C)nc(N(C)C)n1)C(=O)Nc1ccccc1 (stereo not drawn),i,i,i,i
Clc1ccc2nc(NCc3ccccn3)nc(-c3ccccc3)c2c1,i,i,i,i
C[C@@H]1CCCCO[C@H](CN(C)C(=O)Nc2ccc(C(F)(F)F)cc2)[C@H](C)CN([C@@H](C)CO)C(=O)c2cc(NS(C)(=O)=O)ccc2O1,i,i,i,+
Cc1noc(C)c1S(=O)(=O)Nc1ccc2c(c1)C(=O)N([C@@H](C)CO)C[C@H](C)[C@@H](CN(C)C(=O)NC(C)C)OCCCC[C@H](C)O2,i,i,i,i
Cc1nc2ccccn2c1-c1csc(NCc2ccco2)n1,i,i,i,i
C[C@@H]1CCCCO[C@@H](CN(C)C(=O)Nc2ccccc2)[C@H](C)CN([C@H](C)CO)C(=O)c2cc(NC(=O)c3ccccc3)ccc2O1,i,i,i,i
Cc1cc(C)nc(NS(=O)(=O)c2ccc(NC(=O)NC3CCCCC3)cc2)n1,i,i,i,i
Cc1ccc(-c2noc(CSc3nnc(-c4ccncc4)n3-c3ccc(C)cc3)n2)cc1,i,i,i,i
C[C@@H]1CN([C@@H](C)CO)C(=O)c2cc(NC(=O)Nc3ccccc3)ccc2O[C@H]1CN(C)C(=O)Nc1ccc(C(F)(F)F)cc1,i,i,i,i
CNC[C@H]1Oc2c(NC(=O)c3cc(C)nn3C)cccc2C(=O)N([C@H](C)CO)C[C@@H]1C,i,i,i,i
COc1ccc(S(=O)(=O)Nc2ccc3c(c2)CC(=O)N([C@@H](C)CO)C[C@H](C)[C@@H](CN(C)S(=O)(=O)c2cn(C)cn2)O3)cc1,i,i,i,i
CNC[C@H]1OCCCC[C@H](C)Oc2ccc(NS(=O)(=O)c3ccccc3)cc2C(=O)N([C@H](C)CO)C[C@@H]1C,i,i,i,i
C=CC[C@@]12C[C@@H](OC)C(=O)C(OC)=C1O[C@H](c1ccc3c(c1)OCO3)[C@H]2C,i,.,i,i
C[C@@H]1CN([C@@H](C)CO)C(=O)CCCn2nncc2CO[C@H]1CN(C)Cc1ccncc1,i,i,i,i
COc1ccc(-c2nnc(SCC(=O)n3c4c(c5c3CCCC5)CCCC4)n2C)cc1,i,i,i,i
CN(C)CCCSC(=N)N,i,i,i,i
CNC(=O)C(C)N(c1cc(C)cc(C)c1)S(C)(=O)=O (stereo not drawn),i,i,i,i
CCOC(=O)c1ccccc1NC(=O)COc1ccccc1,i,i,i,i
C[C@H]1CN([C@@H](C)CO)C(=O)c2cc(NC(=O)c3ccncc3)ccc2O[C@H]1CN(C)C(=O)Nc1ccc(F)cc1,i,i,i,i
C[C@@H]1CN([C@@H](C)CO)C(=O)c2cccc(NS(C)(=O)=O)c2O[C@H]1CN(C)C,i,i,i,i
Cc1noc(C)c1NC(=O)Nc1cccc2c1O[C@H](CN(C)S(=O)(=O)c1ccc(Cl)cc1)[C@H](C)CN([C@@H](C)CO)C2=O,i,i,i,i

# Screening data: PubChem BioAssay, Broad Institute

# Some of the compounds tested, so the mix of outcomes need not match the whole.
